# Calb FLC: C. albicans growth modulation with fluconazole; growth inhibition, % (test concentration not listed); C. albicans CaCi-2 (fluconazole-resistant clinical isolate) + fluconazole, Alamar Blue growth, 48 h; actives 0.57% (n = 300,000);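 active = most replicates above 75%; inconclusive = exactly half above 75%; inactive = most below 75%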;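 also: all wells also contain fluconazole at 8 µg/ml as a sub-toxic cotreatment; 0% = median of DMSO wells and 100% = median of geldanamycin control wells; wells of about 8 µL received 7.5 nL stock; the first replicate is given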
# Vif A3G: inhibitors of Vif binding to APOBEC3G peptide, primary screen, biochemical, TR-FRET, GST-Vif 1-94, biotin-A3G peptide, dose response retest (AID 1117319); TR-FRET GST-Vif / biotin-A3G peptide binding; higher % means a stronger effect; test concentration not given here; strong numbers were not always called active; one-dose inhibition, %; IC50 in µM for titrated hits; actives 0.57% (n = 260,000);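 active = above the screen mean plus three standard deviations and confirmed in dose response; inconclusive = results disagree or hit not tested in dose response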;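 also: Vif residues 1-94 fused to GST binding biotinylated APOBEC3G peptide 110-148; 0% = full assay without inhibitor and 100% = GST in place of GST-Vif; retest series ran down from 100 µM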
# A1 inh: inhibitors of the anti-apoptotic protein A1, read as caspase activation; caspase activation, % (no concentration beside the values); MEF A1-2A-BIM cells, Caspase-Glo 3/7 luminescence, 3 h; percent of clofoctol response, vehicle zero; actives 0.066% (n = 330,000);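 active = over half of replicate activation scores above 10%, or exactly half above 10 with the replicate mean above 10; inconclusive = replicate mean below 10 yet half the replicates above 10; inactive = over half of replicates below 10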;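 also: wells of about 30 µL received 50 nL stock; many hits fall short of the cut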
# Beta apoptosis: beta cell apoptosis inhibition; INS-1E cytokine-induced death, ATP luminescence, 48 h; percent of positive-control rescue, neutral wells zero; protection from apoptosis, % (no concentration beside the values); AID 435005; actives 0.8% (n = 300,000);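 active = all replicates at 75% or more, or half of them and the mean; inconclusive = half reach 75% but not the mean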;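 also: 0% = cytokine-treated negative control wells and 100% = positive control rescue; higher means more ATP so stronger rescue from cytokine killing; wells of about 40 µL received 100 nL stock; the first replicate is given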
# rRNA inh HTS: inhibitors of bacterial rRNA selective over humanized ribosomes; E. coli WT GFP vs humanized-ribosome RFP mutants, fluorescence, 24 h; active compounds read low; DMSO median 0, no signal -100; GFP signal change (wild-type ribosome), % (concentration not given with the values); actives 1.6% (n = 350,000); AID 720706;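 active = significant combined selectivity score with lowered wild-type GFP, culture density cut under 30%, mutant RFP and density less affected; inactive = any of these conditions unmet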; also: one replicate is shown; some compounds called inactive have numbers as strong as hits
# AF4-AF9 inh: MLL-AF4/AF9 protein interaction inhibition | actives 0.47% (n = 350,000) | AID 651704 | AlphaScreen, biotin-AF4 peptide binding to FLAG-AF9 | inhibition, % at 10 µM;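 active = every replicate reaching a set inhibition limit, whatever the replicate mean, cut at about 25% in these data; inconclusive = mean inhibition reaches that limit but some replicates miss it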;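 also: 0% = plate neutral control median and 100% = total signal loss; the record names both 10 and 1 µM as test concentration; the first replicate is given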
# Target sequence (P42568 whole entry, looked up): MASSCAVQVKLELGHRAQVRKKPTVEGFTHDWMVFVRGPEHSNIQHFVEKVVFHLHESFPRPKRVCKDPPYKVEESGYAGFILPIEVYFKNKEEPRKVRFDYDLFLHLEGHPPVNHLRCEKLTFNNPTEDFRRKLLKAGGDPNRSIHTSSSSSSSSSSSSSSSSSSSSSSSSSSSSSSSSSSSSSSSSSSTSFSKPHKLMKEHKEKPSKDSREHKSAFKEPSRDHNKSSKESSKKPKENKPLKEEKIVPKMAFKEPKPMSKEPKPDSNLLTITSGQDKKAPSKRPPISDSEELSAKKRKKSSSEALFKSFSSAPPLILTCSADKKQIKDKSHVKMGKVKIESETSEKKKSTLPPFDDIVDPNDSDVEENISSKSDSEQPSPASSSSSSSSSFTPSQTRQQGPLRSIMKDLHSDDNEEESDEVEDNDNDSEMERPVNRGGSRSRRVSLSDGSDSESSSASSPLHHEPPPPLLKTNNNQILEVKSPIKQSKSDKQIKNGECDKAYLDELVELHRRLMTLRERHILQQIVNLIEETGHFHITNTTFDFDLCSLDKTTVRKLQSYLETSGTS
# T cruzi inh: blocks replication of Trypanosoma cruzi; AID 1885; actives 1.4% (n = 300,000); inhibition, % (test concentration not listed); T. cruzi beta-gal in NIH3T3, luminescence, 90 h;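 active = mean inhibition across valid replicates above about 55%, limit read from the data; inconclusive = mean below that limit but half or more replicates reach it; inactive = mean below it, under half of replicates reach it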;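 also: signal also drops with host cell toxicity which is not excluded here; 0% = plate median of DMSO wells and 100% = zero luminescence signal; higher percent means less beta-gal luminescence so fewer parasites; stock transfer was 50 nL into about 50 µL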
# RanGTP-Imp inh: inhibitors of RanGTP-importin-beta interaction, primary screen, biochemical, FRET, CFP-Ran, YFP-importin-beta, homogeneous | cell-free CFP-Ran/YFP-importin-beta FRET ratio | inhibition, % (test concentration not listed) | actives 1.1% (n = 300,000) | AID 2216;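 active = most replicates above 15%; inconclusive = exactly half above 15%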;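 also: 0% = DMSO wells and 100% = Ran loaded with GDP instead of GTP; wells of about 40 µL received 100 nL stock; the first replicate is given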
# rRNA inh HTS OD600: further read-out of rRNA inh HTS, marked with its call; OD600 change, %; measured here: OD600 growth;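 optical density of the mix in the first replicate; 0 = DMSO median and -100 = no signal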
# rRNA inh HTS RFP: also measured in rRNA inh HTS; calls as there; RFP signal change, %; measured here: RFP humanized mutant strains;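 first replicate; 0 = DMSO median and -100 = no signal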
# An asterisk follows results filed as active; ? = inconclusive; · = not tested or not shown; & = joins results of further samples.
SMILES,rRNA inh HTS OD600,RanGTP-Imp inh,rRNA inh HTS,T cruzi inh,AF4-AF9 inh,Beta apoptosis,rRNA inh HTS RFP,A1 inh,Vif A3G,Calb FLC
COc1cc(/C=C/C(=O)OCC(=O)NCCC2=CCCCC2)cc(OC)c1OC,-58,·,-31,·,-4.9,-13,16,0.5,-3%,·
O=C(c1ccc(Oc2ccc(Cl)cc2)c([N+](=O)[O-])c1)N1CCCC1,-4,2.2,-9,8,4.1,·,-0.2,0.6,2%,0
CSc1nc(N2CCOCC2)c2c3c(sc2n1)CCC3,·,-5.5,·,2,·,1,·,0.4,42µM*,-1
COc1ccc(N2CCN(CC(=O)c3c[nH]c4ccccc34)CC2)cc1,3,-2.1,-1,36,-0.3,3,1.4,1.4,2%,-7
COc1ccc(N2CCN(C(=O)C3CCCN(S(=O)(=O)c4c(C)noc4C)C3)CC2)cc1 (stereo unspecified),-8,4.5,-6,14,28*,-4,-7.4,0.0,9%,29
COc1ccc(S(=O)(=O)NCCNC(=O)N2CCOCC2)cc1,5,-0.9,3,-11,-2.2,4,0.0,0.2,3%,4
O=C1NC(NS(=O)(=O)c2ccccc2)(C(F)(F)F)C(=O)N1CCc1ccccc1 (stereo unspecified),2,1.4,-2,0,-4.8,1,1.4,0.2,-7%,-7
Nc1nc(CSCCO)nc(Nc2ccc(F)cc2)n1,·,-1.0,·,-12,·,2,·,-0.1,-3%,6
COc1ccc(NS(=O)(=O)c2cc(NC(=O)CNC(=O)c3cccc(OC)c3)ccc2C)cc1,-8.1*,2.8,-25*,-2,4.5,4,5.0*,0.0,16%,10
CN(CCCC(=O)Nc1nccs1)S(=O)(=O)c1ccc(Cl)cc1,-11,-3.3,-10,-4,-7.3,1,0.5,-0.2,-2%,-1
OCC1(CCCc2ccccc2)CCN(Cc2ccc(F)cc2)CC1,6,4.9,14,29,-5.8,-8,2.5,-0.4,0%,-22
COc1ccc(SCCN2CC[C@@H](O)CCC2=O)cc1,21,·,10,·,3.6,-2,25,-0.1,·,·
COc1ccc(CCN2CC(C(=O)OCC(=O)Nc3c(C)nn(-c4ccccc4)c3C)CC2=O)cc1OC (stereo unspecified),16,-2.8,9,-7,-16,-1,0.1,-0.2,-2%,2
Cc1cc(C)c2nc(SCC(=O)NNC(=O)c3ccco3)c(C)cc2c1,6,·,9,4,-1.4,0,-2.0,-0.2,·,3
CCC(C)NC(=O)CSc1nc2ccccc2c(=O)n1CCCC(=O)NCC1CCCO1 (stereo unspecified),7,2.2,12,-4,·,-1,1.2,-0.5,-7%,?
CC(C)(C)c1ccc(OCCC(=O)NNC(=O)c2ccncc2)cc1,-3,·,-4,-9,0.9,-2,-1.8,-0.2,0%,6
Cc1ccccc1NC(=O)C1(NC(=O)c2cccc(N3C(=O)CSC3c3ccccc3)c2)CCCCC1 (stereo unspecified),·,-0.5,·,4,·,-3,·,0.4,18%,60
CCCCc1nc2cc(C(=O)N3CCCCC3C(=O)OC)ccc2o1 (stereo unspecified),-1,-2.7,-1,-38,0.4,-3,-2.3,0.8,·,18
COc1cc(CCNC(=O)CCCn2c(=O)c3cccn3c3cccnc32)cc(OC)c1OC,0,-1.6,2,29,0.5,4,-0.3,-0.1,·,6
COC(=O)[C@@H]1CCCN1Cc1c(C(=O)N2CCCCC2)nc2c(C)cccn12,14,-6.7,8,-10,-1.3,-11,-0.5,-0.2,3%,-5
CCCCn1c(N)c(N(CCOC)C(=O)C2CCN(C(=O)c3ccccc3C)CC2)c(=O)[nH]c1=O,-36,-1.7,-21,-4,0.4,3,-6.3,-0.1,4%,-2
Cc1cc(NS(=O)(=O)c2ccc(NC(=O)c3ccccc3C)cc2)no1,10,10,8,-13,-2.3,-3,-2.4,-0.9,·,1
COc1ccc(-c2nc(CS(=O)CC(=O)NCCCN3CCCC3)c(C)o2)cc1OC (stereo unspecified),·,-1.4,·,-2,·,-9,·,-0.3,5%,3
COCc1c(Br)c(C)nc(OCC(=O)N/N=C/c2ccc(C)o2)c1C#N,7,?,3,-24,-1.7,1,0.1,0.4,·,-4
O=C(Cn1nc(C(F)(F)F)c2c1CCC2)N1CCN(c2ccccc2)CC1,·,3.1,·,-3,·,-3,·,0.2,19%,?
CC(NCC(c1ccco1)N1CCCCC1)C(=O)NC1CCCC1 (stereo unspecified),12,1.6,19,49,1.6,3,3.0,0.8,·,-14
CC1(C)CC(=O)C2=C(C1)c1c(ccc3ccccc13)NC2c1ccc(Br)o1 (stereo unspecified),·,-0.4,·,34,·,·,·,?,12%,-6
CN(C(=O)c1ccc2c(=O)n3c(nc2c1)CCCCC3)c1ccccc1Cl,-10,-0.3,-8,-15,-2.8,-2,-6.2,0.6,·,-2
COCCNC(=O)COC(=O)c1[nH]c(C)c(C(C)=O)c1C,·,-5.1,·,-12,·,-4,·,1.0,9.9µM*,?
CCn1cc(C(=O)NCCCOC)c(=O)c2cc(S(=O)(=O)N(C)C3CCCCC3)ccc21,-9,1.2,-8,25,1.3,11,-1.3,-0.3,-2%&-5%,17

# Compound profiles (already shown).
# Record of CCCCc1nc2cc(C(=O)N3CCCCC3C(=O)OC)ccc2o1 (stereo unspecified) → rRNA inh HTS OD600: -1; RanGTP-Imp inh: -2.7; rRNA inh HTS: -1; T cruzi inh: -38; AF4-AF9 inh: 0.4; Beta apoptosis: -3; rRNA inh HTS RFP: -2.3; A1 inh: 0.8; Vif A3G: ·; Calb FLC: 18
# Record of COc1ccc(-c2nc(CS(=O)CC(=O)NCCCN3CCCC3)c(C)o2)cc1OC (stereo unspecified) → rRNA inh HTS OD600: ·; RanGTP-Imp inh: -1.4; rRNA inh HTS: ·; T cruzi inh: -2; AF4-AF9 inh: ·; Beta apoptosis: -9; rRNA inh HTS RFP: ·; A1 inh: -0.3; Vif A3G: 5%; Calb FLC: 3

# Carrying on.
SMILES,rRNA inh HTS OD600,RanGTP-Imp inh,rRNA inh HTS,T cruzi inh,AF4-AF9 inh,Beta apoptosis,rRNA inh HTS RFP,A1 inh,Vif A3G,Calb FLC
Clc1ccc(Nc2nc(-c3cccs3)cs2)nc1,8,0.4,-13,43,5.3,8,6.4,-4.7,2%,-20
Cc1nc(SC(C)C)[nH]c(=O)c1Cc1ccccc1,·,-1.5,·,7,·,·,·,-0.4,27%,-7
COc1ccc2nccc(/C=C/c3ccnc4ccc(OC)cc34)c2c1,-19,61*,-9,49,2.2,6,0.1,0.4,-1%,5
CC(=O)NC(=S)Nc1cccc(S(=O)(=O)NC2=NCCC2)c1,·,0.1,·,-13,·,11,·,0.9,14%,6
CCc1ccc(OCC(=O)N/N=C(\C)c2ccc(O)cc2O)cc1,-36,-0.5,-38,35,-3.1,-3,-1.9,-1.2,2%,0
COc1cc(-c2nc3cnccn3c2Nc2ccc3c(c2)OCCO3)ccc1O,·,-4.9,·,12,·,1,·,0.6,-6%,-15
O=C(NCc1ccco1)/C(=C\C=C\c1ccccc1)NC(=O)c1ccco1,-5,-5.2,4,-2,6.1,-10,-2.9,1.0,7%,-3
Cc1nc(S(=O)(=O)Nc2ccc3c(c2)OCCO3)cn1C,10,-4.2,5,-5,8.8,-9,-3.1,-0.6,-7%,1
Cn1cccc1/C=N/NC(=O)CNc1ccc2ccccc2c1,13,3.1,1,-7,14,3,-0.9,-0.1,·,2
Cc1ccc(-n2c(SCC(=O)N3CC(=O)Nc4ccccc43)nc3ccccc3c2=O)cc1,-34,0.9,-29,21,5.5,-6,-9.2,1.5,·,3
O=C(CN1C(=O)c2ccccc2C1=O)Nc1sc2c(c1C(=O)NCC1CCCO1)CCC2 (stereo unspecified),·,8.1,·,-14,·,·,·,·,0%,3
O=C(N/N=C\c1ccco1)Nc1cccc(Cl)c1,0,3.1,5,0,4.7,-6,-5.4,-0.5,·,11
COc1ccc(-n2nc(C(=O)NCC(=O)NCCCN3CCOCC3)c3ccccc3c2=O)cc1OC,15,3.2,8,-12,2.5,-1,0.3,0.1,-3%,2
CN(C)CCNc1ccc(-c2n[nH]c(=O)c3ccccc23)cc1[N+](=O)[O-],2,-1.1,53,34,0.1,·,0.3,·,-8%,-2
CNC(=O)C(=O)NCC1OCCCN1S(=O)(=O)c1cccs1 (stereo unspecified),·,?,·,-6,·,-10,·,0.5,28%,2

# Copied from the list.
# COc1cc(-c2nc3cnccn3c2Nc2ccc3c(c2)OCCO3)ccc1O | Calb FLC = -15
# Cc1ccc(-n2c(SCC(=O)N3CC(=O)Nc4ccccc43)nc3ccccc3c2=O)cc1 | T cruzi inh = 21
# COc1ccc2nccc(/C=C/c3ccnc4ccc(OC)cc34)c2c1 | T cruzi inh = 49
# CN(C(=O)c1ccc2c(=O)n3c(nc2c1)CCCCC3)c1ccccc1Cl | T cruzi inh = -15

# The results go on.
SMILES,rRNA inh HTS OD600,RanGTP-Imp inh,rRNA inh HTS,T cruzi inh,AF4-AF9 inh,Beta apoptosis,rRNA inh HTS RFP,A1 inh,Vif A3G,Calb FLC
COc1ccccc1N1CCN(C(=O)CCCC2=NS(=O)(=O)c3ccccc3N2)CC1,3,5.5,-3,6,-1.1,-1,-6.9,-0.1,4%,-2
OCCN(CC(O)Cn1ccc2ccccc21)CC(O)Cn1ccc2ccccc21 (stereo unspecified),·,0.0,·,6,·,-1,·,-0.2,22%,5
COc1ccc(CCNC(=O)c2ccc(Cl)cc2Cl)cc1OC,-7,1.7,-14,1,-0.5,-2,-5.4,0.1,-1%,-29
CC(C)(C)C(=O)O/N=C(\N)Cc1ccc(-c2csnn2)cc1,1,-0.2,-2,-16,·,-7,-3.0,1.2,·,-6
N#Cc1c(C(F)(F)F)cc(-c2ccco2)nc1SCc1ccncc1,·,-1.8,·,62*,·,-2,·,0.5,?,-2
Cc1cccc(C)c1NC(=O)CSc1nc2[nH]c(=O)cc(O)c2s1,7,·,8,·,-10,-2,1.8,1.7,·,·
Cc1ccc(/C(O)=C2\C(=O)C(=O)N(CC(C)O)C2c2cccc(F)c2)cc1 (stereo unspecified),·,-0.6,·,-9,·,0,·,-0.1,30%,-8
COc1ccccc1-c1nc(-c2cccc(C)c2)no1,·,1.2,·,15,·,0,·,-6.1,?,5
CCC(=O)c1c(NC)cc(C)oc1=O,3,0.9,-5,-9,-0.7,-1,0.7,1.0,-1%,-5
COc1ccc(/C=C2\CN(Cc3ccccc3)C/C(=C\c3ccc(OC)c(O)c3)C2=O)cc1O,-5,-1.3,-3,7,4.4,104*,1.7,1.4,·,1
C=CC[C@@H](CC(=O)N[C@H](CO)Cc1ccccc1)C(=O)N[C@@H](COC(=O)[C@@H](CC=C)CC(=O)OC(C)(C)C)Cc1ccccc1,4,·,4,·,-1.8,8,4.8,0.3,0%,·
CC(C)(C)NC(=O)/C(=C/c1ccco1)c1ccccc1,·,?,·,28,·,-1,·,-0.1,?,0

# High-throughput results: PubChem BioAssay, several laboratories

# A portion of the library. The share of hits here may be higher or lower than overall.
